Assay outcomes: PubChem BioAssay, National Center for Advancing Translational Sciences (NCATS)
NPR1 antag = Natriuretic polypeptide receptor (hNpr1) antagonism - Primary qHTS. Atrial natriuretic peptide receptor 1 (Homo sapiens), P16066. HEK293 hNpr1 GloSensor cGMP, ANP-stimulated luminescence. Potency, µM (doses to about 46.3 µM), inactives show at the highest dose activity change, negative = inhibition, most hits filed as inhibitors. 76,000 compounds, 1.6% hits; active = well fitted inhibition curve with a large enough effect; inconclusive = small, poorly fitted or top-dose-only effect; inactive = no such curve, though single readings can be large or run the other way;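 further: nearly all actives have a fitted effect of over 60% in size; nearly all hits also lower the signal before the agonist is added; a reference antagonist and vehicle were the controls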
Target sequence (P16066 whole entry, looked up): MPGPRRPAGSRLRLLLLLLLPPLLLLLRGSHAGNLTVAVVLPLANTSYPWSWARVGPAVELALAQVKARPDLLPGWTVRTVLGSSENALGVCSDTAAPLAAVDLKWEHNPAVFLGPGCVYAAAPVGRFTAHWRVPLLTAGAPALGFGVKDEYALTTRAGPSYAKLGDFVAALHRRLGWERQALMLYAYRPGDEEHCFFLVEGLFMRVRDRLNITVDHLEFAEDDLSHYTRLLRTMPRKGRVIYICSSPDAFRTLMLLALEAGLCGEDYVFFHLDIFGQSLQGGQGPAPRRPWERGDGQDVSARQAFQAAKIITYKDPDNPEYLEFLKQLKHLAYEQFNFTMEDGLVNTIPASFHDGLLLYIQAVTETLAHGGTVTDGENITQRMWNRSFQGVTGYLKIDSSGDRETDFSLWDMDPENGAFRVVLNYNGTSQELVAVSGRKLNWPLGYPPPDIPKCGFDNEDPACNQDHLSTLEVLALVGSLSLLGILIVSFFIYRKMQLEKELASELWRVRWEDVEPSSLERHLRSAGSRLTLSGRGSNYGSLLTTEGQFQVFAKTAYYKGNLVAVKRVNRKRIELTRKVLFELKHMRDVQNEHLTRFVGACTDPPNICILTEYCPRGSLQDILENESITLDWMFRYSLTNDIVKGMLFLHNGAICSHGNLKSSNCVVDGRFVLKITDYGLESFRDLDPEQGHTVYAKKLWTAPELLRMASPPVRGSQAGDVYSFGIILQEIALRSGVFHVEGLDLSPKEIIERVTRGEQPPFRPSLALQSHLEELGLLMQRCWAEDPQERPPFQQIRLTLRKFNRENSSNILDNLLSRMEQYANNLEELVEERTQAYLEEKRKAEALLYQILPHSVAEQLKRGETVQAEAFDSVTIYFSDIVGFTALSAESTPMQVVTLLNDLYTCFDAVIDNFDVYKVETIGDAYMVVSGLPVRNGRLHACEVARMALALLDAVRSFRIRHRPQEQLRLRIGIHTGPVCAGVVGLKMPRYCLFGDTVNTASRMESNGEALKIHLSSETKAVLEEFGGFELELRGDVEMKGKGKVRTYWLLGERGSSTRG
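Compound pre-incubated 30 min at room temperature on GloSensor-loaded HEK293 cells stably carrying hNpr1 and the pGS-40F cGMP biosensor. Stimulation uses hNppA at 0.1 nM final; luminescence is taken at baseline and 20 min post-agonist.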
An asterisk follows results filed as active; ? = inconclusive; [ ] = dose if it differs, or a comment. On the % scale 0 is the no-effect control and ±100 the full control effect; potency means the concentration at half of the fitted maximal effect. Only part of the results is shown. The share of hits here may be higher or lower than overall.

Preview (5 entries):
SMILES | NPR1 antag
Cc1ccc(C2Cn3nnc(-c4noc(-c5ccc6c(c5)OCO6)n4)c3CO2)cc1 (stereo unspecified) | 17%
COC1C(=O)N(C2CCN(C(=O)CCc3c[nH]c4ccccc34)CC2)C12CCOCC2 (stereo unspecified) | 6%
COC(=O)c1cccc2nc([C@H]3CCN(Cc4ccccc4C)C3)oc12 | 4%[70.6 µM]
COc1cccc(OCc2nnc(C(=O)N3CCC[C@@H]3c3cccc(F)c3)n2-c2ccccc2)c1 | -7%
Fc1ccccc1-c1nnc([C@H]2CCN(C3CCOCC3)C2)o1 | -1%[70.6 µM]

All compounds of this part (from the top)
SMILES | NPR1 antag
Cc1ccc(C2Cn3nnc(-c4noc(-c5ccc6c(c5)OCO6)n4)c3CO2)cc1 (stereo unspecified) | 17%
COC1C(=O)N(C2CCN(C(=O)CCc3c[nH]c4ccccc34)CC2)C12CCOCC2 (stereo unspecified) | 6%
COC(=O)c1cccc2nc([C@H]3CCN(Cc4ccccc4C)C3)oc12 | 4%[70.6 µM]
COc1cccc(OCc2nnc(C(=O)N3CCC[C@@H]3c3cccc(F)c3)n2-c2ccccc2)c1 | -7%
Fc1ccccc1-c1nnc([C@H]2CCN(C3CCOCC3)C2)o1 | -1%[70.6 µM]
O=C(C1CC1)N1CCCC2(Cc3ccccc3NC2=O)C1 (stereo unspecified) | 7%[70.6 µM]
COCc1nc(C2CCCN(C(=O)c3cnccn3)C2)no1 (stereo unspecified) | 0%
O=C(NCc1ccc2c(c1)OCO2)c1nc(-c2cccc(C(F)(F)F)c2)c2ccccn12 | ?
Cc1ccc(-c2cc(N3CCCN(C(=O)Cc4ccccc4Cl)CC3)n[nH]2)cc1C | -3%
Cc1cccc(C(C(=O)NCc2cc(-c3cccc(F)c3)no2)N(C)C)c1 (stereo unspecified) | -16%
COCCC(=O)N1CCC(n2c(C)cnc2C2CC2)CC1 | 5%
O=C(NCc1nnc2ccc(-c3ccccc3)nn12)c1cccc(Br)c1 | 5%
O=C(c1ccncc1)N1CCC(Oc2nccnc2N2CCOCC2)C1 (stereo unspecified) | 7%
COc1ccc(NC(=O)CCC2CCN(C(=O)c3ccc(OC)o3)CC2)c(OC)c1 | -11%
CCC(=O)NCC1c2cc(OC)c(OC)cc2CCN1C(=O)NC(C)(C)C (stereo unspecified) | 2%
c1ccc2ncc(CN3CC[C@H](c4nc5ccccc5[nH]4)C3)cc2c1 | -16%[70.6 µM]
Cc1ccc(CNC(=O)N(C)CC2CCOCC2)cc1 | -3%
COC1CCC12CCN(C(=O)c1cccnc1)CC2 (stereo unspecified) | 4%
COCCN1C(=O)c2ccccc2C(C(=O)Nc2nnc(CC(C)C)s2)C12CCCC2 (stereo unspecified) | -2%
CN1CCCn2nc(C(=O)N(C)Cc3nc4ccc(Cl)cc4[nH]3)cc2C1 | 0%
CC1(C)C(=O)N(CC2CCOCC2)[C@H]2CN(Cc3ccccc3O)C[C@H]2[S+]1(=O)[O-] | 0%[70.6 µM]
CCn1ccc(C(=O)NCCc2noc(-c3cccnc3)n2)n1 | 3%
O=C(c1csnn1)N1CCCC(CCc2c(F)cccc2F)C1 (stereo unspecified) | 2%
N#Cc1ccc(C(=O)N2CCC(Cc3nc(-c4ccncc4)n[nH]3)C2)cc1 (stereo unspecified) | -2%
CCOc1cccc(CNC(=O)c2noc(-c3ccc(C)cc3)n2)c1 | 2%
COc1ccc(-c2ccc3c(n2)CN(Cc2ccccc2C)C(=O)CO3)cc1OC | -13%[70.6 µM]
CC(C)(C)NC(=O)NCc1cc2n(n1)CCCN(C(=O)C1CCC1)C2 | 4%
Cc1ccc(OCCC2CCN(C(=O)CCc3ccccc3)C2)cc1 (stereo unspecified) | -1%
Cc1cccc(OCC(=O)NC(C)C(=O)N2CCN(c3ccccn3)CC2)c1 (stereo unspecified) | 1%
CC(c1ccc(-c2cc(N3CCN(C)CC3)nc(N)n2)cc1)N1CCOCC1 (stereo unspecified) | 1%
CCC1=C(C(=O)OC)C(c2cccc(OC)c2)N2C(CC(=O)N3CCC(C)CC3)=CSC2=N1 (stereo unspecified) | ?
CCCNC(=O)N1CCC(N(C)C2CCOCC2)CC1 | -11%
Cn1nccc1-c1nccc2c(=O)cc(N3CCOCC3)oc12 | -6%[70.6 µM]
CNC(=O)[C@@H](CC(C)C)N1CCC[C@H]1C(=O)NCc1ccncc1 | 4%[70.6 µM]
CCOCCOC1CCN(C(=O)c2cc(-c3cccc(OC)c3)n[nH]2)CC1 | -3%
C1CCC(COCCc2noc(C3CCCNC3)n2)C1 (stereo unspecified) | -4%

Reprinted at random: 3 compounds from above, in no set order.
SMILES | NPR1 antag
Cn1nccc1-c1nccc2c(=O)cc(N3CCOCC3)oc12 | -6%[70.6 µM]
CCC1=C(C(=O)OC)C(c2cccc(OC)c2)N2C(CC(=O)N3CCC(C)CC3)=CSC2=N1 (stereo unspecified) | ?
CC(c1ccc(-c2cc(N3CCN(C)CC3)nc(N)n2)cc1)N1CCOCC1 (stereo unspecified) | 1%

Going on with the list:
SMILES | NPR1 antag
Cc1nn(CCC#N)c(C)c1[C@@H]1C=C[C@@H](NS(=O)(=O)c2cccs2)C1 | -3%[70.6 µM]
COCc1cc(CC2(NCc3ccccc3O)COC2)no1 | 0%[70.6 µM]
COc1cc2c(cc1OC)C(C[C@H]1CN(C(=O)C(C)(C)C)CC[C@H]1CC(=O)O)=NCC2 | 0%[70.6 µM]
Cc1nc2cccnc2n1CC1CCCN(S(=O)(=O)c2ccc3c(c2)CCCC3)C1 (stereo unspecified) | ?
C=CCNC(=O)N1CC[C@H]2CC(=O)N(CCc3cccc(OC)c3OC)CC[C@H]2C1 | 1%[70.6 µM]
O=C(NCc1ccccc1)N1CCCC(Cc2nncn2-c2ccccc2)C1 (stereo unspecified) | -2%
O=C(NCc1ccccn1)C1(Oc2ccc(Cl)cc2)CCNCC1 | 0%
COc1ccc(F)cc1S(=O)(=O)NC1CCc2nnc(C)n2CC1 (stereo unspecified) | -7%
CCC(NC(=O)c1ccc2nc(-c3ccc(F)cc3)cn2c1)c1ncc(C)[nH]1 (stereo unspecified) | -6%
O=C(c1ccc(Cl)s1)N1CCC(n2cc(-c3nc(-c4ccccc4)no3)nn2)CC1 | 0%
Cc1cccc(-c2noc(CCC(=O)N3CCC(C)(c4noc(-c5ccncc5)n4)CC3)n2)c1 | ?
O=C(Cc1cccs1)NCc1nnc2ccc(-c3ccccc3)nn12 | 1%
COc1ccc(CCN2CCC(CN(C)Cc3nc(C(C)C)cs3)CC2)cc1 | 3%
COc1ccc(CN2C[C@@H](CO)[C@H](C3CCN(C(C)=O)CC3)C2)cc1C | 3%
CCc1ccc(Cn2nc(C3CC3)nc2-c2cnn(C)c2)cc1 | 4%
O=C(NCc1ccc2c(c1)OCO2)c1ccc2c(c1)CC(=O)N2Cc1ccc(F)cc1 | -9%
CNC(=O)c1cc(Nc2cccc(N(C)C)c2)cc2c1OCCN2Cc1cccnc1 | -1%[70.6 µM]
Cc1noc(C)c1-c1cnc(Nc2ccc(CN3CCN(C)CC3)cc2)c2c1CCO2 | -1%[70.6 µM]
O=C(O)c1[nH]ncc1CN1CCc2[nH]nc(-c3ccc(-c4ccccc4)cc3)c2C1 | 0%
OC1(CN2CCN(C(c3ccccc3)c3ccccc3)CC2)CNCCOC1 (stereo unspecified) | 1%
Cc1nc(CCNC(=O)CC2COc3ccc(C(=O)N(C)C)cc3N2C)no1 (stereo unspecified) | -2%
Cn1nccc1C(=O)NCC1CCCCC(=O)N1 (stereo unspecified) | 12%
Cc1ccccc1C(=O)N1CCC(n2cc(-c3nc(-c4ccccc4)no3)nn2)C1 (stereo unspecified) | 7.9µM*
COc1cccc(C(=O)NC2CCN(c3cnn(CC4CC4)c(=O)c3)CC2)c1OC | -15%
Cc1noc(-c2cn(C3CCN(C(=O)c4cccc(OC(F)(F)F)c4)CC3)nn2)n1 | 0%
COc1ccc(C(=O)N[C@H]2C[C@@H](c3nc(-c4cncnc4)no3)N(C)C2)cc1 | 3%[70.6 µM]
Cn1ccnc1CNCC1(COc2cnccn2)C[C@@H](O)[C@@H](O)C1 (stereo partly specified) | 0%
Cc1nc([C@@H]2CN(Cc3ccccc3)C[C@H]2C(N)=O)n[nH]1 | 5%
CCN1CCCN(S(C)(=O)=O)CC12CCOCC2 | 0%
COc1ccc(-c2ccc(C(=O)NCCCn3ccnc3C(C)C)cn2)cc1 | 3%
CN1CC(=O)N(c2ccccc2)Cc2c(NC3CCCC3)ncnc21 | 1%[70.6 µM]
Cn1nccc1OCc1cn2c(=O)n(C)cc(-c3cccc(OCc4ccccc4)c3)c2n1 | ?
CCNC(=O)c1c(C)oc2c1CN(C(=O)CC)CC2 | 1%
CC(C)c1noc(CN2CCCC(c3nccn3Cc3ccccc3)C2)n1 (stereo unspecified) | -5%
Cn1cc(-c2cccc(COc3ccc4c(cnn4CC[S+](C)(=O)[O-])c3)c2)cn1 | ?
COc1cccc(C(=O)N2CCC(n3cc(-c4nc(C)no4)nn3)CC2)c1 | -1%
COC(=O)[C@@H]1Cc2ncn(Cc3ccc(Cl)cc3)c2CN1Cc1cccc(C#N)c1 | ?
CCN1CC(C(=O)N2CCC(Sc3ccc(C)cc3)CC2)CC1=O (stereo unspecified) | ?
COc1ccc(CCC(=O)NCCC2CCN(C(=O)Nc3ccc(C)cc3)CC2)cc1 | -23%
CCc1noc(-c2cn(C3CCCN(C(=O)c4cc(Cl)ccc4F)C3)nn2)n1 (stereo unspecified) | -19%
CCN(CC)c1ncccc1CNC(=O)Nc1ccc2c(c1)OCO2 | -22%
CC(C)N1CCN(C2CCOC3(CCN(C(=O)COc4ccccc4)CC3)C2)CC1 (stereo unspecified) | 1%
Cc1cc(C(=O)N2CC(c3nnc(C(C)C)o3)C3(CCOCC3)C2)n(C)n1 (stereo unspecified) | 2%
CN(C)C(=O)c1ccc(-c2ncc3c(n2)OCCN(CC2CC2)C3=O)cc1 | -2%[70.6 µM]
CCOc1ccc(CC(=O)N2CCC3(CC2)N=C(c2ccccc2)NO3)cc1 | -12%
CC(C)(C)c1ccc(-c2cc(C[C@H]3CNCC[C@H]3CC(=O)NCc3ccc(F)cc3)no2)cc1 | 1%
CCNc1ncc(C(=O)N[C@H](c2cnn(C)c2)C2CC(O)C2)cn1 (stereo partly specified) | 7%
Clc1ccc(-c2cnc([C@@H]3COCCN3)[nH]2)cc1 | -8%[70.6 µM]
COc1ccc(OC)c(S(=O)(=O)N2CCCCCCNC(=O)CC2)c1 | 3%
COc1ccc2[nH]cc(CCNC(=O)c3ccc(N4CC5CC(C4)[C@H]4CCCC(=O)N4C5)nc3)c2c1 (stereo partly specified) | -2%
Cn1nc(C2CCN(C(=O)COc3ccc(F)cc3)CC2)c2c1CCOC2 | 7%
Cc1cn2nc(C(=O)N3CCC(NC(=O)c4ccc5ccccc5n4)CC3)cc2c(=O)[nH]1 | 14%
CC(C)CN(C1CCOCC1)C1CN(S(=O)(=O)c2cn(C)cn2)C1 | 2%
O=C(Nc1ccc(C(F)(F)F)cc1)N1CCC(n2cnnc2C2CC2)C1 (stereo unspecified) | -8%
COc1ccc(C2Cn3cnc(C(=O)N4CCC(C(=O)Nc5ccccc5F)CC4)c3CO2)cc1 (stereo unspecified) | -8%
COc1ccc(NC(=O)N[C@H]2C[C@@H](c3nc(-c4ccc(F)cc4)no3)N(C)C2)cc1 | 0%[70.6 µM]
Cc1cc(CN2CCC3(CC2)CCN(C(=O)c2ccccn2)CC3CO)on1 (stereo unspecified) | 8%
Cc1ccc(NC(=O)N2CCC(n3cnnc3C3CC3)C2)cc1C (stereo unspecified) | -7%
CCNC(=O)N(C1CC1)C1CCOC2(CCN(C(=O)c3ocnc3C)CC2)C1 (stereo unspecified) | -3%
CNc1ncc(C(=O)N2CCCC(CCc3ccc(F)cc3)C2)cn1 (stereo unspecified) | 4%

Following part
SMILES | NPR1 antag
CN1CCN(c2cnn(CCC(N)=O)c(=O)c2)CC1 | 2%
Cc1ccc2c(n1)N(C)[C@H](CO)CCN(Cc1cccnc1)C2 | 7%[70.6 µM]
CN1CCN(c2nc3c(c(=O)[nH]2)CCN(Cc2cccc(Cl)c2F)CC3)CC1 | -5%
CC(=O)Nc1ccc(CN2CCC3(Cc4ccccc4NC3=O)C2)cc1 (stereo unspecified) | 2%
Cc1ncccc1C(=O)N1CC(Oc2ccc(-c3nc(-c4ccccc4)no3)cc2)C1 | ?
CN1CCCCCCN(C(=O)c2ccc3ccccc3n2)[C@H]2CCC[C@H]2C1=O | 5%
CCc1nc2c(c(-c3ccc(Cl)cc3)n1)CN(C(=O)c1ccc(C)cc1)CC2 | -16%
CCNC(=O)NC1CC(=O)N(Cc2ccccc2C(F)(F)F)C1 (stereo unspecified) | 5%
CCOC(=O)CCNC(=O)N1CCc2c(nc(-c3ccccc3)[nH]c2=O)C1 | -5%
Cc1onc(C(=O)NC2CCc3n[nH]c(=O)n3CC2)c1COc1ccccc1 (stereo unspecified) | -1%

Taken from the results shown (4 entries):
SMILES | NPR1 antag
CN1CCN(c2cnn(CCC(N)=O)c(=O)c2)CC1 | 2%
Cc1ccc2c(n1)N(C)[C@H](CO)CCN(Cc1cccnc1)C2 | 7%[70.6 µM]
CN1CCN(c2nc3c(c(=O)[nH]2)CCN(Cc2cccc(Cl)c2F)CC3)CC1 | -5%
CC(=O)Nc1ccc(CN2CCC3(Cc4ccccc4NC3=O)C2)cc1 (stereo unspecified) | 2%
